Rce1 inh: yeast Rce1p protease inhibitors, primary screen, biochemical, fluorescence, cell-free homogeneous; CAAX prenyl protease 2 (Saccharomyces cerevisiae (strain ATCC 204508 / S288c)), Q03530; yeast membranes, quenched prenylated peptide cleavage fluorescence; calls only; 290,000 tested, 0.27% active;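 active = fall in fluorescence gain of 50% or more versus controls, with final raw signal at or below 3038400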;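 also: plate controls were neutral control wells for no effect and wells lacking membranes for full effect; tested at 10 µM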
Target sequence (Q03530 whole entry, looked up): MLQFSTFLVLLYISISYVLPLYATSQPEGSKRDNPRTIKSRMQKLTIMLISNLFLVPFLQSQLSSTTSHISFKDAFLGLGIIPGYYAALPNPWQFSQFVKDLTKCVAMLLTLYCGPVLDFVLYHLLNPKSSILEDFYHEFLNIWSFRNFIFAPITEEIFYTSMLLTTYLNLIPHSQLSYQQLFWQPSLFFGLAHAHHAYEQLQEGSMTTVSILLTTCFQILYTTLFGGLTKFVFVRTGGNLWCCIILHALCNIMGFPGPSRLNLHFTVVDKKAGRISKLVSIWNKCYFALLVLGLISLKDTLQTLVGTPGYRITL
eIF4H FP inh: human eIF4H binding inhibitors, primary screen, translation initiation inhibitor project, biochemical, uHTS, fluorescence polarization. AID 2012, 2009. eIF4H fluorescence polarization binding assay. Eukaryotic translation initiation factor 4H (Homo sapiens), Q15056. 290,000 tested, 0.94% active. inhibition, % at 35 µM;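 active = 50% or more with normal probe brightness, or confirmed in later tests; about a fifth of its hits are not listed in these tables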;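 also: calls also rest on retests at 20 µM and on dose response follow-up; 0% = protein and probe with vehicle and 100% = probe without protein; strong numbers were not always called active; many hits fall short of the cut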
CSC inhib: cancer stem cell viability inhibitors, primary screen, luminescence; cancer stem cell-like cells viability; inhibition, % at 7.5 µM; 300,000 tested, 1.1% active;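 active = mean at 75% or more and at least half the replicates too; tested in HMLE shEcad cells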;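 also: 0% = median of negative and 100% = median of positive control wells; the first replicate is given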
UUG fidelity: modulators of yeast start codon fidelity, primary screen, whole organism, S. cerevisiae, single point, plate reader; S. cerevisiae UUG-firefly luciferase reporter, luminescence/redox ratio; activity score, % at 18.7 µM; 350,000 tested, 0.13% active; AID 602363, 2012;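 active = replicate mean at a twofold rise or more, about +100% in these data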;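 also: firefly luciferase made from a UUG start codon reports start codon fidelity; reporter light over untreated wells divided by growth signal over untreated wells; some hits fall short of that in this replicate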
MT1-MMP act inh: blockers of MT1-MMP proenzyme processing, primary screen, HT1080 RFP-PRO-GFP cells, GFP/RFP fluorescence; GFP/RFP ratio fluorescence, overnight; percent of plate control window, DMSO zero; Matrix metalloproteinase-14 (Homo sapiens), P50281; AID 651647, 2012; 360,000 tested, 0.061% active; GFP/RFP ratio change, % at 20 µM;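 active = GFP/RFP ratio change of at least 30% with cell ATP level not reduced by more than half and red fluorescence within 50% of control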; also: strong numbers were not always called active
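Material: RFP-PRO-GFP reporter HT1080 cells. Dosing: single-point 20 µM compound, 1% DMSO. Controls: DMSO and RFP-L50D-GFP cell wells. Timing: cells overnight before dosing, compound overnight, 37 °C, 5% CO2. Measure: GFP/RFP fluorescence ratio.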
PABP FP inh: PABP poly(A) RNA binding inhibitors, primary screen, biochemical, fluorescence polarization, uHTS; Polyadenylate-binding protein 1 (Homo sapiens), P11940; inhibition, % at 35 µM; 290,000 tested, 1% active;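 active = 50% or more with normal probe brightness, or confirmed in later tests; about a fifth of its hits are not listed in these tables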;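 also: calls also rest on retests at 20 µM and on dose response follow-up; controls were probe without protein and protein plus probe with vehicle; some compounds called inactive have numbers as strong as hits; many hits fall short of the cut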
Env fusion inh: inhibitors of HIV-1 Env-driven cell-cell fusion, primary screen, HeLa-JRFL effector, CEM21 target cells, luciferase; inhibition, % at 12.3 µM; 360,000 tested, 1.1% active;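 active = mean replicate inhibition score of at least 50 and every replicate individually at or above 50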;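 also: 0% = plate neutral controls and 100% = maraviroc near 300 nM; one replicate is shown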
MT1-MMP act inh RFP: further read-out of MT1-MMP act inh, marked with its call; RFP signal change, %; measured here: RFP expression control read;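 0 = vehicle wells; hits needed this value within 50% of zero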
Active calls of the source: *; i = inactive; x = no result given.

cpd	smiles	Rce1 inh	eIF4H FP inh	CSC inhib	UUG fidelity	MT1-MMP act inh	MT1-MMP act inh RFP	PABP FP inh	Env fusion inh
1	CNC(=S)N(Cc1ccccc1)Cc1cccnc1	x	4.6	38.3	-13.6	1.0	2.4	1.2	10.0
2	CCCn1nnnc1NC(=O)COc1ccc(Cl)cc1C	i	4.8	22.2	-11.5	6.2	3.0	-6.4	x
3	CCCc1nc(SCC(=O)Nc2cc(C)on2)c2c(=O)n(C)c(=O)n(C)c2n1	i	4.3	-6.4	-7.8	2.0	3.1	8.9	-6.1
4	O=C(O)Cn1cc(/C=C/[N+](=O)[O-])c2ccccc21	i	10.9	0.1	x	-0.3	3.8	-7.8	21.2
5	CC(C)=CC(=O)Nc1nc2ccc([N+](=O)[O-])cc2s1	i	-3.3	x	x	-8.9	-11.9	-9.8	-44.5
6	CC(=O)c1ccc2c3c(cccc13)C(=O)N(c1c(C)nn(C)c1C)C2=O	x	-0.1	-12.2	-0.1	-12.6	0.9	18.5	x
7	Fc1ccccc1Cn1nnc2c(NCCc3ccccn3)ncnc21	i	-3.8	0.3	71.3	-1.2	1.3	2.0	x
8	Cc1cccc(OCC(=O)Nc2nc3ccc([N+](=O)[O-])cc3s2)c1C	i	5.2	9.7	-7.8	3.1	-2.3	5.8	24.7
9	CC(C(=O)Nc1ccccc1)N(C)CCOc1ccccc1 (stereo unspecified)	i	0.2	-7.4	-5.1	-0.7	1.2	5.8	0.8
10	Cc1nc2nc(CSc3ccc(Cl)cc3)cc(=O)n2[nH]1	i	6.9	6.1	-29.6	0.9	4.1	31.7	x
11	O=C(Nc1cccnc1)c1cc(-c2ccco2)on1	i	3.8	-8.2	1.2	-1.4	5.2	5.2	-75.9
12	O=C(N/N=C/c1ccc2cccnc2c1)c1ccco1	i	10.8	-11.0	-41.4	1.5	2.3	12.5	15.9
13	C=CCN(C(=O)Nc1ccccc1)C1CC(=O)N(c2ccc(OC)cc2)C1=O (stereo unspecified)	i	2.1	-12.3	6.3	8.5	-0.9	-2.0	-71.8
14	O=C(NC1CCN(C(=S)NCc2ccco2)CC1)C12CC3CC(CC(C3)C1)C2	i	-13.1	-1.0	-12.8	1.9	-4.5	2.9	5.9
15	O=C(NCCCN1CCCC1=O)NC1CCCCC1	i	-5.6	-1.5	8.1	12.7	5.5	9.9	9.4
16	O=C(O)C1=C(C(=O)O)C2C=CC1C2	x	x	x	-13.6	-3.1	2.0	x	-4.0
17	O=C(CN(c1ccccn1)S(=O)(=O)c1ccccc1)N/N=C/c1cccc([N+](=O)[O-])c1	i	-1.7	-16.4	10.0	1.7	3.8	14.6	x
18	O=C(NCCN1CCN(c2ccccc2)CC1)Nc1cccc(Cl)c1	i	7.8	x	17.3	0.2	-4.8	2.7	4.4
19	CCOc1ccc(NC(C)C(=O)N/N=C/c2ccc([N+](=O)[O-])cc2)cc1 (stereo unspecified)	i	-4.9	-9.9	x	x	x	-1.3	x
20	CC(=O)Nc1ccc(S(=O)(=O)NCCSCc2cccc(Cl)c2)cc1	i	-9.2	-7.4	8.0	5.2	1.0	-3.3	8.0

Three compounds already listed, arranged by heavy-atom count, falling.
cpd	smiles	Rce1 inh	eIF4H FP inh	CSC inhib	UUG fidelity	MT1-MMP act inh	MT1-MMP act inh RFP	PABP FP inh	Env fusion inh
13	C=CCN(C(=O)Nc1ccccc1)C1CC(=O)N(c2ccc(OC)cc2)C1=O (stereo unspecified)	i	2.1	-12.3	6.3	8.5	-0.9	-2.0	-71.8
19	CCOc1ccc(NC(C)C(=O)N/N=C/c2ccc([N+](=O)[O-])cc2)cc1 (stereo unspecified)	i	-4.9	-9.9	x	x	x	-1.3	x
12	O=C(N/N=C/c1ccc2cccnc2c1)c1ccco1	i	10.8	-11.0	-41.4	1.5	2.3	12.5	15.9

The list continues:
cpd	smiles	Rce1 inh	eIF4H FP inh	CSC inhib	UUG fidelity	MT1-MMP act inh	MT1-MMP act inh RFP	PABP FP inh	Env fusion inh
21	Cc1ccc(C(=O)NCc2ccc3c(c2)OCO3)cc1N1CCCC1=O	i	-7.7	-10.7	-12.5	3.9	7.6	0.2	-15.6
22	COc1cccc(-c2nc3ccc(O)cc3c(=O)o2)c1	x	-0.1	-6.4	-7.4	10.0	1.5	0.5	-75.5
23	O=C(Nc1ccc(-c2cn3ccccc3n2)cc1)c1cccs1	i	-21.6	18.5	x	0.7	-3.4	6.8	-47.8
24	CC1=NN(Cc2cc(C(C)(C)C)c(O)c(C(C)(C)C)c2)C(=O)C1	i	9.9	2.1	-10.7	1.7	-1.6	16.0	-24.1
25	COc1cc(C(=O)NCC(c2cccnc2)N2CCN(c3ccc(F)cc3)CC2)cc(OC)c1OC (stereo unspecified)	i	-2.1	2.5	x	5.0	4.8	-14.1	-30.3
26	Cc1ccc(-c2cc(C(=O)Nc3ccc(S(=O)(=O)Nc4nc(C)cc(C)n4)cc3)c3ccccc3n2)cc1	i	-8.3	18.8	x	3.2	2.8	-10.5	x
27	Cc1cc([N+](=O)[O-])c(-c2ccc(/C=N/n3cnnc3)o2)cc1Cl	i	32.8	-2.0	-25.0	-1.2	2.0	6.8	x
28	COCCn1c(N)c(N(Cc2ccccc2)C(=O)Cc2c(Cl)cccc2Cl)c(=O)[nH]c1=O	i	-6.7	-6.1	x	1.8	2.3	9.9	0.4
29	C[C@H]1CCC[C@]2(O[C@@H](CCO)C[C@H](O)[C@H]2O)O1	i	-0.4	-3.8	-5.3	-1.3	3.6	-10.4	-0.7
30	Cc1ccc(NC(=O)c2cc(=O)c3ccccc3o2)cc1	i	8.9	4.4	-10.7	-5.0	-4.4	3.8	-36.8
31	COc1ccc(N2CCN(C(=O)c3cc([N+](=O)[O-])ccc3N3CCN(CCO)CC3)CC2)cc1	i	-6.4	x	-17.7	-1.5	-2.5	-6.1	4.3
32	NC1=NCC(O)=C1c1nc2ccccc2[nH]1	i	6.2	-8.7	x	2.8	2.6	-3.6	4.2
33	CCc1cccc(CC)c1NC(=O)CNCc1cccs1	i	-4.0	x	-16.9	-0.8	1.4	15.7	-1.9
34	CCOC(=O)c1c(C)[nH]c(C(=O)COC(=O)c2ccc(O)cc2O)c1C	i	36.4	49.0	-14.7	2.5	-3.9	25.4	19.1
35	CCn1ncc([N+](=O)[O-])c1C(=O)Nc1c(C)cccc1C	i	8.4	-22.2	-11.9	-3.4	-1.2	6.3	-14.5
36	O=C(CNS(=O)(=O)c1ccccc1)NCC(=O)OCc1ccc(C(=O)c2ccccc2)cc1	i	-4.2	-6.4	x	-0.2	2.4	25.1	-44.9
37	Cc1ccc(-c2nnc(NC3CCCCC3)c3ccccc23)cc1S(=O)(=O)N1CCN(C)CC1	i	4.2	10.2	-2.6	2.0	-5.2	-4.5	-8.6
38	COc1ccc(C(=S)N2CCOCC2)cc1OS(=O)(=O)c1ccccc1[N+](=O)[O-]	i	3.9	-12.3	x	-0.8	0.4	11.5	23.7
39	Cc1cc(C)nc(NC2=NCC(=O)N2CCc2c[nH]c3ccccc23)n1	i	3.8	x	-3.6	1.2	2.8	-2.0	2.0
40	Cn1ncc2c(NNC(=O)c3ccccc3Cl)ncnc21	i	6.9	-4.6	-4.6	4.1	3.5	-3.9	5.0
41	Cc1cc(/C(O)=C2\C(=O)C(=O)N(CCN(C)C)C2c2ccncc2)ccc1OCc1ccccc1 (stereo unspecified)	i	2.0	-1.1	x	-1.0	-0.3	-0.7	-53.1
42	Cc1cc(NC(=O)CCC(=O)N(Cc2cccs2)C(C)(C)C(=O)NC2CCCCC2)no1	i	5.5	-0.5	-18.0	-3.5	-3.4	21.4	18.8
43	CNC(=S)/N=C(\Nc1ccc(C)cc1)c1ccccc1	i	7.6	-16.1	-25.8	0.5	-0.5	-6.5	4.5
44	Cc1ccc(NC(=O)c2ccccc2Cl)cc1-n1cnnn1	i	-6.8	-15.8	x	2.9	1.4	-7.6	-19.7
45	O=C(Nc1ccc(F)cc1)Nc1ccc(N2CCOCC2)c2nonc12	i	2.0	4.1	x	3.7	-1.4	-11.0	-20.2
46	COc1cc(CCCN2C(=O)C(=O)NC[C@@H]2CC2CCCCC2)cc(OC)c1OC	i	x	8.1	-14.6	-0.5	0.9	x	-6.8
47	Cc1cc(=O)[nH]c(SCc2cn3ccccc3n2)n1	i	9.8	-7.8	x	-8.2	-5.9	-0.7	-14.9
48	CCc1ccc(C2=NN(C(=O)OC)C(O)(C(F)(F)F)C2)cc1 (stereo unspecified)	i	-0.5	x	-23.1	-2.0	0.9	13.7	x
49	O=C(COC(=O)Cn1cnc2ccccc2c1=O)Nc1ccccc1Sc1ccc(Cl)cc1	i	8.9	-0.9	-4.7	2.8	-6.7	-1.8	x
50	CCSc1nsc(NC(=O)Nc2cccc(F)c2)n1	i	-3.6	93.3*	-13.0	-8.7	-36.6	-1.3	19.9
51	CS(=O)(=O)N1CCN(C(=O)c2ccc(Cl)s2)CC1	i	-0.3	-3.0	-13.3	-0.1	-3.3	-2.2	-7.8
52	COc1cc2c(C(=O)Nc3ccccc3F)cn(C)c(=O)c2cc1OC	i	-4.1	-10.6	-1.9	0.9	4.2	4.0	2.6
53	Cc1ccc2c(c1)n([O-])c1c([n+]2=O)CCCC1	i	-2.9	-3.1	-19.3	0.3	2.0	-1.6	-24.8
54	COCCN(C(=O)CSc1nnc(-c2ccccc2F)n1C)c1c(N)n(Cc2ccccc2)c(=O)[nH]c1=O	i	4.3	x	-4.4	0.1	0.5	2.2	4.3
55	Cc1ccc(CN2CC(C(=O)Nc3ccc(S(=O)(=O)Nc4cc(C)nc(C)n4)cc3)CC2=O)cc1 (stereo unspecified)	i	0.2	-4.9	-10.1	-1.1	4.6	4.8	x
56	Cc1cc(Cl)c(S(=O)(=O)NCCC(=O)O)cc1OCC(N)=O	i	7.4	2.5	-18.9	-1.2	4.0	4.0	x
57	CCNCC(=O)Nc1c(C)cccc1C	x	x	-14.5	-20.5	-1.0	3.5	x	-12.9
58	CCCCNC(=O)c1ccccc1NS(=O)(=O)c1ccc2c(c1)OCCO2	x	-8.1	-14.5	-18.5	-3.4	1.1	3.4	3.3
59	O=C(Nc1cccnc1)c1cc(-c2ccc(Br)cc2)nc2ccccc12	x	1.6	-6.2	-18.1	0.2	-6.1	6.4	4.9
60	C=Cc1ccc(Cn2c(C)c(C(=O)NCc3ccccc3C(F)(F)F)sc2=O)cc1	x	x	x	-10.0	-4.2	-2.2	x	-22.0
61	CN(C)CCCN(C(=O)c1ccc(S(=O)(=O)N2CCCC2)cc1)c1nc2c(F)cc(F)cc2s1	i	x	-1.7	-7.9	0.1	2.0	x	5.7

Compounds as they come; any-hit rate near 3%.
